ClpP mod: qHTS Assay for Activators of ClpP; purified B. subtilis ClpP, FRET peptide cleavage, 20 min; Potency, µM (top dose mostly 57.5 µM), inactives show top-dose activity change, negative = active; 1.9% of 340,000 active; active = well fitted falling curve with a large enough effect; inconclusive = small, poorly fitted or top-dose-only effect; inactive = no such curve, though single readings can be large or run the other way; also: potency is read from the fitted curve at half-maximal effect; the source files actives as falling curves though it sought activators and does not explain the sign; nearly all actives have a fitted effect of over 65% in size; many hits overshoot -100%
Target sequence (P80244 whole entry, looked up): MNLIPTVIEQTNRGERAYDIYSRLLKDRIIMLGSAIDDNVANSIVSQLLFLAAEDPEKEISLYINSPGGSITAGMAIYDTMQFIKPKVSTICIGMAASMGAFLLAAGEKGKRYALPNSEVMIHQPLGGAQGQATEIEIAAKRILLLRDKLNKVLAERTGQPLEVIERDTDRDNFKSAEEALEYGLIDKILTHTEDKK
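ClpP 10 microg/mL final, pH 8 Tris/KCl buffer with BSA, glycerol, Tween-20; compound pinned in; FRET-FV substrate; RT 20 min; Ex320/Em430; ΔFRET vs ADEP 5.8 microM, DMSO, no enzyme.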
gsp antag: gsp mutant antagonism | gsp-mutant cells, cAMP HTRF, 30 min; control for the full effect not named in the record | Potency, µM (series often up to 76.9 µM), inactives show at the highest dose activity change, negative = inhibition, hits mostly inhibitors | 0.4% of 340,000 active; active = falling curve of any shape with a large fitted effect; inconclusive = falling curve, mostly with a smaller effect; inactive = flat or rising curve; cell line not stated here;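 also: intracellular cAMP measured with PDE inhibitor Ro 20-1724 present during compound exposure; potency is read from the fitted curve at half-maximal effect; % is scaled to controls: 0 for no effect and ±100 for the full control effect; nearly all actives have a fitted effect of over 65% in size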
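Measurement of cellular cAMP by homogeneous time-resolved fluorescence following a 30 min compound exposure at 37C. The PDE inhibitor […] was present throughout; the assay buffer was DPBS with 0.05% BSA and 0.005% Tween 20.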
TRPML1 ag: activates the human TRPML1 channel | Q9GZU1 | TRPML1-expressing cells, Ca2+ dye fluorescence, FDSS; host cell line not named in the record; reference of the full effect not given here | activation, % (no concentration beside the values) | 0.12% of 410,000 active | AID 624414; in the data active = activation above about 50%; inconclusive = about 30% to 50%; inactive = below about 30%; also: 0% is about no effect; the text of the record puts the active cut at 80%
Target sequence (Q9GZU1 whole entry, looked up): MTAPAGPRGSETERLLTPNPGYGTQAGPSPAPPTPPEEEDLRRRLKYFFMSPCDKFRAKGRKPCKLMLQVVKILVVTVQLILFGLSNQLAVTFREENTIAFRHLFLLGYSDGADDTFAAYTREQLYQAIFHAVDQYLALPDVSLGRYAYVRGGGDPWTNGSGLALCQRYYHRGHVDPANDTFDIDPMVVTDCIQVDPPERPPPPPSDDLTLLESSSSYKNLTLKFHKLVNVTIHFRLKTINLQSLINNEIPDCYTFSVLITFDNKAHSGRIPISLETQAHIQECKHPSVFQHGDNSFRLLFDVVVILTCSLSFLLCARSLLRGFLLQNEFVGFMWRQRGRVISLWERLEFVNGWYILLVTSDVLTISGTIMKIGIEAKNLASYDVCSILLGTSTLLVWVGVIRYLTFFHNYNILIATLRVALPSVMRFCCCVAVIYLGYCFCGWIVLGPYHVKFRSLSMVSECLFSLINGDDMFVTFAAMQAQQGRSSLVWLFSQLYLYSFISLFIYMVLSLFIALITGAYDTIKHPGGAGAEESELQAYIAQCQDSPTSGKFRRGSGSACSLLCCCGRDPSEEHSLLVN
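Calcium fluorescence on an FDSS kinetic reader gave the read-out. Tet-induced TRPML1-DL cells were plated overnight, dye-loaded (Ca8 with quencher, 45-90 min, room temperature, dark), then read 110 s after compound addition, and again 110 s after 4uM final 54-4 (EC80).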
Menin-MLL FL inh: menin-MLL binding inhibition, fluorescein peptide; FP activity change, % at 61.4 µM; Fluorescence polarization, fluorescein-MLL peptide displacement from menin; 290,000 tested, under 10 active; inconclusive = falling polarisation curve, or a change in total fluorescence; inactive = total fluorescence flat and polarisation flat or rising; no compound was filed as active; the % refers to the polarisation; negative = inhibition;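 also: % of control where 0% means no effect; inhibitors lower the polarisation; unlabelled MLL peptide was the positive control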
gsp agonist: agonists of gsp mutant (McCune-Albright syndrome); 0.13% of 340,000 active; gsp mutant cells, cAMP HTRF, 30 min; control for the full effect not named in the record; AID 624287; Potency, µM (doses to about 76.9 µM), for the others: at the top dose activation (cAMP increase), actives largely listed as activators; active = well fitted activation curve with a large enough effect; inconclusive = small, poorly fitted or top-dose-only effect, or another doubt; inactive = no such curve, though single readings can be large or run the other way; cell line not stated here;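 also: phosphodiesterase inhibitor Ro 20-1724 added with compounds to block cAMP breakdown; potency is read from the fitted curve at half-maximal effect; nearly all actives have a fitted effect of over 60% in size; about a fifth of the inactives were tested at one dose only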
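Cells in DMEM/10% FBS with G418 were pretreated with compounds in DMSO plus […] (300 uM stock) for 30 min at 37C. cAMP was measured by HTRF (cAMP-d2 plus anti-cAMP antibody-K) after 30 min at room temperature.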
TRPML1 blocker: blocks the human TRPML1 channel | 0.02% of 390,000 active | AID 624415 | activity change, negative = inhibition, % (concentration not given with the values) | Q9GZU1 | TRPML1-inducible cells, Ca2+ dye fluorescence, FDSS; active compounds read low; inhibition of EC80 agonist-evoked calcium signal; in the data active means activity change below about -50%; inconclusive means about -30% to -50%; inactive means above about -30%;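 also: stimulus is agonist 54-4 at its EC80 concentration; % is scaled to controls: 0 for no effect and ±100 for the full control effect; the text of the record puts the active cut at -80%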
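TRPML1-DL cells, Tet-induced overnight (~16 h, 37 °C) at 1,500 cells/well, were loaded with Ca8 no-wash dye plus quencher for 45-90 min at room temperature. Compounds were pinned during FDSS kinetic reading; agonist 54-4 at EC80 (4 uM final) then added.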
Starred values were filed as active, the others as inactive; ? = inconclusive; / = not tested or not shown; & = joins results of further samples; [ ] = another dose, or the depositor's remark.

Below each compound – ClpP mod	gsp antag	TRPML1 ag	Menin-MLL FL inh	gsp agonist	TRPML1 blocker
1	CC(C)c1ccc(N(CC(=O)O)S(=O)(=O)c2cccnc2)cc1
    0.5%	13%	0.3	-1.7	?	-9
2	Cc1ccc(C2CC(c3ccc(C)cc3)n3nc(N)nc3N2)cc1 (configuration not stated)
    4.9%	2%	2.1	1.6	-19%	-15
3	CN(C)S(=O)(=O)c1cccc(NC(=O)CN(CCO)CC(=O)Nc2cccc(S(=O)(=O)N(C)C)c2)c1
    /	2%	0.5	3.2	11%	2
4	CCc1ccccc1NC(=O)c1ccc2c(c1)N(Cc1cccc(Cl)c1)C(=O)c1ccccc1S2(=O)=O
    0.0%	/	1.9	/	/	3
5	Cc1nc2cc3ccccc3cc2s1
    /	-12%	-1.0	/	24%	-18
6	COc1cccc(/C=N/n2c(-c3cc(C)[nH]n3)n[nH]c2=S)c1O
    /	-22%	0.1	0.1	31%	38
7	O=C(O)c1cn(-c2ccc(N3CCCC3)c(F)c2)c2c(F)c(F)c(F)cc2c1=O
    /	-22%	0.0	9.8	?	-15
8	COC(=O)c1cccc(C(=O)Nc2cnc3ccccc3c2)n1
    1.7%	-7%	0.2	5.9	-5%	-7
9	O=C(Nc1ccc2nsnc2c1)N1CCCCCC1
    -7.1%	3%	-1.1	-1.5	-35%[inhibitor]	2
10	CCC(C)Sc1ccc(-c2nc3ccc(C)cn3c2NCc2ccccc2)cc1 (configuration not stated)
    4.1%&4.8%	1%	-0.8&1.6	/	?	19
11	COc1ccc(C)cc1NC(=O)c1nc2nc(C)cc(C)n2n1
    0.8%	6%	-0.3	/	13%[15.4 µM]	22
12	Nc1nonc1C(=O)NCCNCc1ccccc1F
    -0.9%	/	3.6	/	/	-4
13	CCOC(=O)N1CCN(C(=O)C(C)c2ccc([N+](=O)[O-])cc2)CC1 (configuration not stated)
    -0.6%	-11%	-0.3	4.0	-3%[15.4 µM]	-4
14	CC(C)NS(=O)(=O)c1ccc(OCC(=O)N2CCN(c3cccc(Cl)c3)CC2)cc1
    -0.1%	/	2.4	/	/	2
15	COc1ccccc1C(=O)N1CCCCC1CCN1CCOCC1 (configuration not stated)
    0.4%	/	-0.6	/	/	-13

Next part.
Below each compound – ClpP mod	gsp antag	TRPML1 ag	Menin-MLL FL inh	gsp agonist	TRPML1 blocker
16	CCC(C)c1ccccc1NC(=O)CN(C)CCOc1ccc(Cl)cc1 (configuration not stated)
    /	-20%	1.7	-0.2	?	-3
17	C=CCOC(=O)Nc1c(C(=O)OC)[nH]c2ccccc12
    -7.4%	-9%	1.1	3.1	19%	-15
18	Cc1ccc(CNC(=O)CCOc2ccc(C(C)(C)C)cc2)cc1
    -5.9%	3%	0.2	0.9	-17%	-1
19	Cc1ccc(-c2noc(-c3cccnc3N(C)Cc3ccc(Cl)cc3)n2)cc1
    3.6%	/	0.0	/	/	34
20	CCCn1nnc(NC(=O)c2ccc3ccccc3c2)n1
    0.5%	-12%	-1.3	2.6	-25%[15.4 µM]	2
21	Cn1c(=O)n(C)c2cc([N+](=O)[O-])c(N3CCN(C(=O)c4ccccc4Cl)CC3)cc21
    -0.5%	?	-0.3	2.9	14%	7
22	COC(=O)c1c(C)oc2ccc(N(C(=O)c3ccncc3)S(=O)(=O)c3ccc(C)cc3)cc12
    0.8%	?	-0.4	2.2	-22%	15
23	O=C(Nc1ccc2ccccc2c1)c1cccc([N+](=O)[O-])c1
    -1.8%	-14%	-1.5	-5.1	-7%[15.4 µM]	2
24	O=C(COC(=O)Cc1c(Cl)cccc1Cl)NCCC1=CCCCC1
    0.7%	8%	6.8	3.6	-3%	22
25	O=C(Nc1ccccc1C(=O)O)c1cc(S(=O)(=O)Nc2cccc(F)c2)ccc1Cl
    1.5%	-13%	2.7	0.5	-2%	1
26	CCOCCC(=O)Nc1cc(Cl)ccc1OC
    1.4%	4%	3.0	-0.3	-2%	7
27	COc1ccc(C)cc1NC(=O)CN1C(=O)COc2ccc(C)cc21
    0.3%	1%	1.3	-0.2	-6%[15.4 µM]	-3
28	O=C(NCc1cccnc1)Nc1ccc(F)cc1F
    -1.7%	13%	2.4	-1.4	-33%[inhibitor]	-11
29	COc1ccc(CNC(=O)c2ccc(NC(=O)N3CCSc4ncccc43)cc2)c(OC)c1
    ?	/	1.9	/	/	37
30	COCCNc1nc(NCC2CCCCC2)c2sc(-c3ccccc3)cc2n1
    25µM*	/	-0.7	/	/	16

Next part
Below each compound – ClpP mod	gsp antag	TRPML1 ag	Menin-MLL FL inh	gsp agonist	TRPML1 blocker
31	O=C(NCCN1CCOCC1)c1cc2sccc2n1Cc1ccc(Cl)cc1
    -1.8%	?	0.8	2.5	20%	4
32	Cc1cccc(Cn2cnc3c(nnn3Cc3ccc(F)cc3)c2=O)c1
    0.9%	-1%	3.9	3.5	-36%[inhibitor]	24
33	CCc1ccc(NC(=O)Cn2ncn3c(cc4ccccc43)c2=O)cc1
    ?	-2%	0.4&-0.6	/	6%	-5&3
34	CC1(c2nnc(-c3ccccc3)o2)CC(c2ccc([N+](=O)[O-])cc2)=NO1 (configuration not stated)
    0.7%	?	1.0	/	-13%	5
35	CS(=O)(=O)N1CCCC(C(=O)Nc2ccccc2Cl)C1 (configuration not stated)
    /	8%	-0.4	0.2	-45%[inhibitor]	7
36	COC(=O)c1cc(C(=O)OC)[nH]n1
    /	5%	-0.1	0.7	-6%[15.4 µM]	3
37	O=C(Nc1ccccc1F)c1coc(=O)c(Br)c1
    /	-67%	0.5	?	17%[15.4 µM]	9
38	CCc1ccc(NC(=O)C(=O)NNC(=O)COc2cccc(OC)c2)cc1
    -0.8%	2%	0.1	10	?	5
39	COCCN1Cc2cccc(C(=O)NCc3cccs3)c2C1=O
    0.4%	-15%	1.6	2.2	?	5
40	CCn1c2ccccc2n2c(=O)c(=O)n(CC(=O)Nc3ccc(C(C)C)cc3)nc12
    1.2%	4%	-0.4	1.1	-33%[inhibitor]	-9
41	CC1(C)CCc2c([nH]c3ccccc3c2=O)O1
    -18%	6%	/	-2.0	/	/
42	N#Cc1ccccc1NC(=O)c1cccc(COc2ccc(Cl)cc2Cl)c1
    15%	10%	3.0	2.2	15%	22
43	COc1ccc(/C=C/C(=O)NCC(=O)N2CCC(N(C)CCN3CCOCC3)CC2)cc1OC
    3.9%	3%	1.9	-2.5	27%	36
44	COc1ccc(/C=N/NC(=O)c2c([N+](=O)[O-])c(C)nn2C)cc1
    0.8%	3%	0.5	-1.1	-30%[inhibitor]	22
45	Oc1ccc(C=NN=C2c3ccccc3-c3ccccc32)c(O)c1
    1.3%	-14%	0.8	/	13%	-7

Sorted by value in TRPML1 blocker (falling): 3 from the list above
cpd	canonical_smiles	TRPML1 blocker
43	COc1ccc(/C=C/C(=O)NCC(=O)N2CCC(N(C)CCN3CCOCC3)CC2)cc1OC	36
32	Cc1cccc(Cn2cnc3c(nnn3Cc3ccc(F)cc3)c2=O)c1	24
8	COC(=O)c1cccc(C(=O)Nc2cnc3ccccc3c2)n1	-7

Look-ups from the results shown.
Value for cpd 43 under gsp antag: 3%
Value for cpd 39 under TRPML1 blocker: 5

Other entries
Below each compound – ClpP mod	gsp antag	TRPML1 ag	Menin-MLL FL inh	gsp agonist	TRPML1 blocker
46	COc1ccccc1NS(=O)(=O)c1cc(NC(=O)Nc2cccc(C)c2)ccc1N1CCCCC1
    ?	3%	0.7	/	-54%[inhibitor]	-8
47	COc1ccc(-c2coc3cc(O)ccc3c2=O)cc1O
    -19%	-5%	/	-6.7	/	/
48	COc1ccc(CCNC(=O)C2CCCN2C(=O)Nc2ccc(F)cc2)cc1OC (configuration not stated)
    1.0%	11%	-0.1	-5.9	-1%[15.4 µM]	-2
49	COc1ccc(C2CC(c3ccc(Br)cc3)=NN2C(=O)CSC2=NCCS2)cc1 (configuration not stated)
    -19%	2%	-0.8	2.9	-20%	3
50	Cc1ccc(OCC(=O)NNC(=O)c2cccnc2)cc1
    -1.6%	8%	0.1	2.7	-12%	-10
51	C=CCOC(=O)C1=C(C)NC(=S)NC1/C=C/c1ccccc1 (configuration not stated)
    0.6%	1%	0.9	3.0	40%	9
52	CC1CN(S(=O)(=O)c2cccc(C(=O)NNC(=O)C(C)Oc3ccccc3F)c2)CC(C)O1 (configuration not stated)
    /	3%	-0.2	/	-2%[15.4 µM]	-5
53	O=C(N=C1SC2CS(=O)(=O)CC2N1c1ccccc1)c1cccc([N+](=O)[O-])c1 (configuration not stated)
    -0.1%	-13%	0.1	/	-5%	-21
54	Cc1ccc(C2=NN(C(=O)CCC(=O)O)C(c3cccc([N+](=O)[O-])c3)C2)cc1 (configuration not stated)
    /	-14%	0.6	2.2	-24%	-4
55	Cc1cc(=O)[nH]c2cc(Cl)ccc12
    -11%	1%	0.2	-0.6	18%	3
56	O=C(CSc1nc(C2CC2)nc2ccccc12)Nc1ccccc1Cl
    /	3%	-0.4	/	16%[15.4 µM]	22

Compounds above containing fluorine (eight):
Below each compound – ClpP mod	gsp antag	TRPML1 ag	Menin-MLL FL inh	gsp agonist	TRPML1 blocker
7	O=C(O)c1cn(-c2ccc(N3CCCC3)c(F)c2)c2c(F)c(F)c(F)cc2c1=O
    /	-22%	0.0	9.8	?	-15
12	Nc1nonc1C(=O)NCCNCc1ccccc1F
    -0.9%	/	3.6	/	/	-4
25	O=C(Nc1ccccc1C(=O)O)c1cc(S(=O)(=O)Nc2cccc(F)c2)ccc1Cl
    1.5%	-13%	2.7	0.5	-2%	1
28	O=C(NCc1cccnc1)Nc1ccc(F)cc1F
    -1.7%	13%	2.4	-1.4	-33%[inhibitor]	-11
32	Cc1cccc(Cn2cnc3c(nnn3Cc3ccc(F)cc3)c2=O)c1
    0.9%	-1%	3.9	3.5	-36%[inhibitor]	24
37	O=C(Nc1ccccc1F)c1coc(=O)c(Br)c1
    /	-67%	0.5	?	17%[15.4 µM]	9
48	COc1ccc(CCNC(=O)C2CCCN2C(=O)Nc2ccc(F)cc2)cc1OC (configuration not stated)
    1.0%	11%	-0.1	-5.9	-1%[15.4 µM]	-2
52	CC1CN(S(=O)(=O)c2cccc(C(=O)NNC(=O)C(C)Oc3ccccc3F)c2)CC(C)O1 (configuration not stated)
    /	3%	-0.2	/	-2%[15.4 µM]	-5
